PINK1 modulator = changes PINK1 expression. PINK1 immunofluorescence, high-content cytometry, 24 h. Potency, µM (titrated, usually from 76.6 µM), for inactives: at the top dose activation (PINK1 increase), actives largely listed as activators. 0.2% of 410,000 active; active = well fitted activation curve with a large enough effect; inconclusive = small, poorly fitted or top-dose-only effect; inactive = flat fitted curve, though single readings scatter; cell line not stated here;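 further: potency means the concentration at half of the fitted maximal effect; % of control where 0% means no effect; nearly all actives have a fitted effect of over 65% in size; a mitochondrial uncoupler was the plate control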
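A stable cell line was treated with compounds at 5 concentrations for 24 hours, with CCCP as control. PINK1 levels and mitochondrial localization were measured by immunofluorescence with mitochondrial, cell and nuclear markers after fixation, read by laser-scanning cytometry.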
TRPML1 ag = activates the human TRPML1 channel | AID 624414 | activation, % (concentration not given with the values) | Q9GZU1 | TRPML1-expressing cells, Ca2+ dye fluorescence, FDSS; host cell line not named in the record; reference of the full effect not given here | 0.12% of 410,000 active; in the data active = activation above about 50%; inconclusive = about 30% to 50%; inactive = below about 30%; further: 0% is about no effect; the text of the record puts the active cut at 80%
Target sequence (Q9GZU1 whole entry, looked up): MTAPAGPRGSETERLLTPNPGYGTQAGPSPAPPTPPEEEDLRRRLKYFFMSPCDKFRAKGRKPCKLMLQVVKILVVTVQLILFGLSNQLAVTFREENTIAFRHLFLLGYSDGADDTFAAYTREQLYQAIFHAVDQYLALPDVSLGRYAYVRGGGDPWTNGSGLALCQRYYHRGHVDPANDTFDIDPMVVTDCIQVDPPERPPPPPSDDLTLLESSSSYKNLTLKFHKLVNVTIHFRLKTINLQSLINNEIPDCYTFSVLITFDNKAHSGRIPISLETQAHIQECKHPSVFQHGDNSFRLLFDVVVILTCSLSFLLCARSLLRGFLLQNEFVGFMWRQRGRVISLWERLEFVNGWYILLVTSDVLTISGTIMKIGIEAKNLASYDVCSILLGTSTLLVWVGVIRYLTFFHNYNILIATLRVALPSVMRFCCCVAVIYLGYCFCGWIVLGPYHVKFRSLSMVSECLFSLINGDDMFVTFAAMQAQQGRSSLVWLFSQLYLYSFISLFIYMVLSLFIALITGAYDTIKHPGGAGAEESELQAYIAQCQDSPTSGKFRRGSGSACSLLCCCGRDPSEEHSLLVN
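TRPML1-DL cells, Tet-induced overnight (~16 h, 37 degrees C), loaded 45-90 min at room temperature with Ca8 no-wash calcium dye plus quencher. FDSS fluorescence: 10 s baseline, compound pin-transfer, 110 s agonist read, then EC80 54-4 (4uM final) and 110 s antagonist read.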
TRPML1 inh = human mucolipin-1 channel inhibition | TRPML1-inducible cells, Ca2+ dye fluorescence, FDSS; stronger effect = lower value; inhibition of EC80 agonist-evoked calcium signal | Q9GZU1 | activity change, negative = inhibition, % (concentration not given with the values) | 0.02% of 390,000 active; in the data active means activity change below about -50%; inconclusive means about -30% to -50%; inactive means above about -30%;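 further: stimulus is agonist 54-4 at its EC80 concentration; on the % scale 0 is the no-effect control and ±100 the full control effect; compound concentration not given in the record; the text of the record puts the active cut at -80%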
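Tet-induced TRPML1-DL cells loaded with Ca8 no-wash calcium dye were read kinetically on FDSS. Compound addition was followed by EC80 agonist 54-4 (4 uM final); inhibition was read over 110 s.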
CtBP-E1A inh = CtBP/E1A binding inhibition | AlphaScreen GST-E1A/His-CtBP binding, 1536-well; stronger effect = lower value; control for the full effect not named in the record | activity change, % (test concentration not listed) | 0.49% of 340,000 active | AID 651724; in the data active means activity change below about -65%; inconclusive means about -30% to -65%; inactive means above about -30%; further: on the % scale 0 is the no-effect control and ±100 the full control effect; compound concentration not given in the record
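In 5 uL wells, 23 nL compound meets equimolar GST-E1A and His-CtBP (5X stock 125 nM each) for 2 h, 37 °C. Beads (5X, 50 ug/mL) then 1 h, 37 °C, dark.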
D2 agonist = human D2 receptor agonism in beta-arrestin assay; 0.084% of 360,000 active; DiscoveRx PathHunter D2 beta-arrestin, luminescence, 90 min; 100% = 57 uM dopamine signal; activation, % (concentration not given with the values); AID 624465; P14416; in the data active = activation above about 40%; inconclusive = about 15% to 40%; inactive = below about 15%; further: compound concentration not given in the record; the text of the record calls up to 30% inactive
Target sequence (P14416 whole entry, looked up): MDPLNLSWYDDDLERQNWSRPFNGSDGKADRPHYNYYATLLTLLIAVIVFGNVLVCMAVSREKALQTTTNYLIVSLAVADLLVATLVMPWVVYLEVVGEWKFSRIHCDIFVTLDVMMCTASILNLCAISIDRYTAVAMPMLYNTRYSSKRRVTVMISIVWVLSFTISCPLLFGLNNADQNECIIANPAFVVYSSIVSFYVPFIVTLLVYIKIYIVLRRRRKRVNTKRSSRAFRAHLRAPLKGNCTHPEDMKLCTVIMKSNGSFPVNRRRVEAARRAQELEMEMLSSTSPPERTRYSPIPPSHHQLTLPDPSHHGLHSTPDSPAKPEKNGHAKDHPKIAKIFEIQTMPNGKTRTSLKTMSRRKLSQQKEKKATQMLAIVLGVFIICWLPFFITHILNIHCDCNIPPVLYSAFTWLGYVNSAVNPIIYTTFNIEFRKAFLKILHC
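DiscoveRx PathHunter D2 beta-arrestin cells (2,100/well) attached overnight, then compound-stimulated 90 min at 37 C in HBSS/10 mM HEPES/0.1% Tween-20 buffer; beta-galactosidase complementation read by luminescence after 1 h at ambient temperature. Dopamine 57 uM final (EC100) as control.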
Six1-Eya2 inh = blocks human Six1 binding to Eya2; Q15475+O00167; activity change, % (test concentration not listed); AID 651725; 0.56% of 360,000 active; AlphaScreen GST-Six1/His-Eya2 binding, biochemical; stronger effect = lower value; control for the full effect not named in the record; in the data active = activity change below about -65%; inconclusive = about -30% to -65%; inactive = above about -30%; further: on the % scale 0 is the no-effect control and ±100 the full control effect; compound concentration not given in the record
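Homogeneous AlphaScreen proximity assay pairing GST-Six1 with His-tagged Eya2 (added as 5X mix: 250 nM and 500 nM) in 50 mM Tris pH 8.0, 300 mM NaCl, 1 mM TCEP. Glutathione donor and nickel acceptor beads; 1 h, 37 °C, dark.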
The depositor's hits bear a star; ? = inconclusive; nt = no result given; [ ] = dose if it differs, or a comment. Outcome played no part in choosing rows; overall some 1% were active at least once.

SMILES	PINK1 modulator	TRPML1 ag	TRPML1 inh	CtBP-E1A inh	D2 agonist	Six1-Eya2 inh
CCOC(=O)COC(=O)c1ccc(Oc2cc(C)nc(SC)n2)cc1	1.4%	3.0	17.9	17.2	0.8	11.5
COC(=O)CCCC1=CC2=CC(=O)C(C)(OC(=O)c3cccs3)C(=O)C2=CN1CCN1CCOCC1 (centres undefined)	-0.9%	1.0	2.8	0.1	3.9	-1.1
O=C(c1ccco1)N1CCN(C(=O)C2CC(c3ccc(Cl)c(Cl)c3)=NO2)CC1 (centres undefined)	1.0%	0.2	5.0	-16.9	1.7	5.7
Cc1ccnc(NC(=O)CCNC(=O)c2ccccc2Cl)c1	-0.4%	0.0	-4.9	-4.0	-0.3	-2.2
Cc1cc(C)c(NC(=O)CCCOC(=O)C2=COCCO2)c(C)c1	0.9%	1.1	-3.2	0.1	-4.3	-1.3
COc1ccc(/C=C/C(=O)N(CC(C)C)CC(C)C)cc1Br	2.9%[38.3 µM]	2.6	11.9	5.6	0.9	0.5
COCCOC(=O)c1c(NC(=O)CNc2ccc(C)c(F)c2)sc(C(N)=O)c1C	-0.4%	-0.7	9.3	2.7	-2.0	9.3
COC(=O)c1ccc(OC)c(CSc2nnc(COc3cccc(C)c3)o2)c1	-2.2%[38.3 µM]	4.2	44.8	28.9	1.0	21.8
COc1cc(OC)c(NC(=O)N2CCc3cc(S(=O)(=O)N4CCC(C)CC4)ccc32)cc1Cl	0.0%	-0.2	-5.9	nt	nt	nt
COc1cc([C@@H]2CC=C(C(=O)O)[C@H](c3ccc(C)cc3)N2S(=O)(=O)c2ccc(C)cc2)cc(OC)c1OC	1.6%	-0.4	-6.0	-0.8	-0.8	-1.2
Cc1ccc(-c2nnn(C/C(N)=N/O)n2)cc1	0.3%	-0.4	-7.4	nt	0.5	2.2
Cc1ccc(C(=O)Nc2nc3ccccc3s2)s1	4.7%[38.3 µM]	1.0	-7.4	5.6	-0.1	2.7
Cc1cccc(C(=O)Oc2ccc(/C=N/NC(=O)Cc3ccc([N+](=O)[O-])cc3)cc2)c1	10.2%	1.0	-2.5	-16.1	-5.5	-10.0
CCOC(=O)c1sc(Nc2ccc(F)cc2)nc1C	0.0%	1.0	14.6	9.3	4.1	-2.4
Cc1ccc2cc(C(=O)O)c(C)nc2c1	3.6%	1.3	8.5	0.7	4.2	-2.4
Cc1cccc(C(=O)c2cn[nH]c2-c2ccc(C)cc2O)c1	2.6%	0.3	-10.1	0.6	1.1	-1.2
COc1ccc(C(=O)COC(=O)CNC(=O)C2CCCCC2)c(OC)c1	-3.1%	-1.5	-13.3	3.1	-2.7	-4.8
COc1cccc(NC(=O)c2cc(=O)c3ccccc3o2)c1	-0.6%	0.7	24.5	nt	2.9	4.4
COC(=O)C1=C(N)Oc2cc(C)n(Cc3ccncc3)c(=O)c2C1c1cccnc1 (centres undefined)	-1.1%	-0.3	32.5	1.2	-0.8	-2.9
CN(C)c1nc(C=C(C#N)C#N)c(Cl)n1-c1ccc(F)cc1	-1.4%	-0.2	-1.5	-2.8	-4.8	-21.0
Cc1cccc(Oc2ccccc2NS(=O)(=O)c2ccc(CCC(=O)O)cc2)c1	-0.7%	0.0	1.0	1.3	-0.7	-10.5
CCOCCCn1c(SCC(=O)Nc2ccccc2OC)nc2c(oc3ccccc32)c1=O	-0.8%	0.3	2.0	nt	nt	nt
O=C1CC(N2CCN(c3ccc(Cl)c(Cl)c3)CC2)C(=O)N1 (centres undefined)	-0.7%	-0.9	2.2	-0.5	2.6	-8.5
S=C(NCCCN1CCOCC1)Nc1cccc(-c2nnc3n2CCCCC3)c1	-1.1%	3.6	-10.7	nt	-0.1	12.6
ON=Cc1ccnc2ccccc12	-1.1%	-0.3	-11.0	3.1	1.2	-1.5

Just CtBP-E1A inh and PINK1 modulator, for some of the entries so far:
| SMILES | CtBP-E1A inh | PINK1 modulator |
| --- | --- | --- |
| COc1ccc(/C=C/C(=O)N(CC(C)C)CC(C)C)cc1Br | 5.6 | 2.9%[38.3 µM] |
| COCCOC(=O)c1c(NC(=O)CNc2ccc(C)c(F)c2)sc(C(N)=O)c1C | 2.7 | -0.4% |
| COc1cc(OC)c(NC(=O)N2CCc3cc(S(=O)(=O)N4CCC(C)CC4)ccc32)cc1Cl | nt | 0.0% |

The list goes on:
SMILES	PINK1 modulator	TRPML1 ag	TRPML1 inh	CtBP-E1A inh	D2 agonist	Six1-Eya2 inh
Cc1[nH]c2ccccc2c1C(=O)COC(=O)CCS(=O)(=O)c1ccccc1Cl	1.2%	1.8	-0.3	2.4	1.6	-6.6
O=C1CCc2cc(S(=O)(=O)N3CCN(c4cccc(C(F)(F)F)c4)CC3)ccc2N1	?	2.0	-10.6	5.9	2.7	3.4
CS(=O)(=O)N(CC(=O)O)Cc1cccc(CN(CC(=O)O)S(C)(=O)=O)c1	2.0%	0.5	6.1	2.2	-1.9	2.9
COc1ccc(OC)c(NC(=O)Cc2coc3cc(C)cc(C)c23)c1	-13.8%[38.3 µM]	0.0	-1.9	1.0	-1.0	2.4
CN(C)CCNc1ccc2ncn3c4ccc(O)cc4c(=O)c1c23	-2.0%	12.9	-8.1	-2.9	4.3	?
Brc1ccccc1-c1nnc(COc2ncnc3c2cnn3-c2ccccc2)o1	1.4%	0.4	3.7	-8.4	-3.2	-7.2
O=C(/C=C/c1ccc2c(c1)OCO2)Nc1cccnc1	0.5%	1.1	26.5	nt	-2.8	2.4
COc1cc(/C=C(\C#N)c2nc3ccccc3[nH]2)cc(Br)c1OCc1ccc(F)cc1	10.4%	1.7	-5.3	-2.3	0.2	6.6
O=C(Nc1ccnn1C1CCN(CCCc2ccccc2)CC1)c1cccc(F)c1	-1.5%	0.0	-4.0	4.3	-0.4	-1.9
O=C(CS(=O)(=O)c1cn(CC(=O)N2CCCC2)c2ccccc12)Nc1ccccc1	3.0%	-0.4	-2.6	3.0	-3.4	1.0
CC1CCN(S(=O)(=O)c2ccc(NC(=O)CN3CCCCCC3)cc2)CC1	2.7%	1.1	5.7	17.5	-2.2	8.5
COc1ccc2ccccc2c1/C=N\NC(=O)c1ccc(C)s1	-0.5%	1.7	14.3	-3.2	-3.0	1.6
Cn1nc(C(=O)NCc2cccnc2)c2ccccc2c1=O	-1.2%[38.3 µM]	-0.4	-1.3	-4.2	-0.3	-0.9
COc1ccc(CN2CCNC(=O)C2CC(=O)NCCCC2CCCC2)c(F)c1 (centres undefined)	1.3%	0.4	3.2	5.1	-6.8	-2.0
Cc1cccc(CN2C3=NCCCN3c3ccccc32)c1	0.1%	nt	nt	3.6	-7.5	2.0
COc1ccccc1-n1nnnc1SCC(=O)NCC1(N2CCOCC2)CCCCC1	0.7%	-0.4	-8.0	0.8	-4.7	3.7
NC(=O)C1CCN(C(=O)CCC(=O)c2cccs2)CC1	-0.4%	-0.2	1.8	-5.1	3.9	-2.7
CC1CCCCN1C(=O)COC(=O)c1ccc(=O)n(Cc2ccccc2)n1 (centres undefined)	-1.9%	-0.3	2.1	4.9	-5.5	1.3
O=C(Nc1ccccc1)C1C2/C=C\CCCCC21 (centres undefined)	9.5%	-0.1	-11.0	nt	-0.2	4.6
COc1ccc2cc(C(=O)C3CCCN(C(=O)c4snnc4C)C3)ccc2c1 (centres undefined)	5.0%	0.3	44.1	3.3	-1.9	-1.8
CCOc1ccc(-c2cc(NC(=O)c3c(F)cccc3F)c(C(=O)O)s2)cc1	-0.6%	0.3	-4.8	-1.1	-1.1	-2.4
CCOc1ccc(CNC(=O)c2cccc(Nc3nc4ccccc4n4nnnc34)c2)cc1OC	2.5%	-0.2	-7.1	nt	nt	nt
O=C1NC(c2ccccc2)=CC(c2ccccc2O)N1 (centres undefined)	1.4%	-0.7	-4.6	7.6	-2.8	-1.0
Cc1nn(Cc2c(Cl)cccc2Cl)c(C)c1NC(=O)CCCn1nc([N+](=O)[O-])c(Cl)c1C	17.3%	-0.1	-1.4	-0.8	-1.1	4.2
CCCCN(CC)S(=O)(=O)c1ccc2c(c1)n(C)c(=O)c(=O)n2C	5.0%	0.6	-16.4	nt	-1.7	6.6
(list continues)
SMILES	PINK1 modulator	TRPML1 ag	TRPML1 inh	CtBP-E1A inh	D2 agonist	Six1-Eya2 inh
CCOc1ccc(C2C(=O)N(C3CCCCC3)CC(=O)N2CCc2ccccc2)cc1OC (centres undefined)	1.1%	-0.2	2.7	nt	nt	nt
CN1CCC(N2CCN(c3cccc(C(F)(F)F)c3)CC2)CC1	0.8%[38.3 µM]	-0.1	-16.4	1.1	0.6	2.5
Cc1ccc(N2C(=O)c3ccccc3NC2c2ccccc2O)cc1 (centres undefined)	5.8%	-0.6	9.4	nt	0.4	-0.1
CC(C)(C)N(Cc1ccccc1)C(=O)COC(=O)CSc1ccc([N+](=O)[O-])cc1	1.7%	2.8	15.3	0.6	-2.6	0.0
CN(C)/C=N/c1c(C#N)cnn1-c1ncnc2sc(-c3ccccc3)cc12	0.3%	0.8	-14.6	-0.9	-1.0	-2.3
Cc1cccc(NC(=O)CSc2nc3[nH]ncc3c(=O)[nH]2)c1	-1.7%	3.7	1.1	2.0	-2.0	0.3
CCC(C)NS(=O)(=O)c1ccc(NC(=O)c2c(-c3ccccc3)noc2C)cc1 (centres undefined)	0.0%	0.2	-4.9	2.2	-1.2	0.3
Cc1ccc(/C=N/n2c(-c3ccco3)n[nH]c2=S)cc1	-1.8%	0.5	-3.5	-13.7	1.6	-24.2
CN1CCN(C(=O)CSc2nc3c(c(=O)n(C)c(=O)n3C)n2C)CC1	-0.3%	-0.3	-13.3	18.1	-0.7	9.5
COc1ccc2cc(C3(C)NC(=O)N(CC(=O)NCC(F)(F)F)C3=O)ccc2c1 (centres undefined)	-2.0%	0.6	-7.5	-3.9	1.6	-3.2
Cc1noc(C)c1-c1ccc(C(=O)NCc2ccc(Cl)cc2)c2occc12	5.9%	0.5	nt	-19.0	3.9	-17.5
CCCn1c(=O)c2c(nc3n2CCCN3CCc2ccccc2)n(C)c1=O	1.9%	-1.3	-4.7	-11.4	-0.1	?
CC1(C(=O)NS(=O)(=O)Cc2ccccc2C(F)(F)F)CCN1C(=O)c1ccccc1 (centres undefined)	0.7%	-0.5	nt	5.6	-1.5	2.5
COc1ccc(C(=O)NCC(=O)OCc2ccccc2F)cc1	1.3%	0.1	25.0	12.3	-4.1	18.3
Cc1c(Cl)cccc1NC(=O)Cn1nnc(-c2nc(-c3ccccc3)no2)c1N	1.3%	0.2	-0.3	nt	nt	nt
O=c1c(-c2ccccc2)coc2c(CN3CCOCC3)c(O)ccc12	-1.0%	-0.1	3.3	6.6	-0.9	2.3
Cc1c(Cl)cccc1NC(=S)NCc1cccn1C	1.6%	1.7	-17.7	-10.0	-2.8	-6.3
Cc1ccc(CCNC(=O)C2CCCN(C(=O)N(C)C)C2)cc1 (centres undefined)	4.0%[38.3 µM]	0.2	0.0	8.2	1.8	4.1
Cc1ccc(C)c(NC(=O)CSc2nc(=O)n(CCN3CCOCC3)c3c2CCCC3)c1	-1.5%	-0.5	9.3	1.9	-3.4	-5.4
